YjeE inh: inhibitors of E. coli YjeE (TsaE). P0AF67. purified YjeE, fluorescence polarisation of a bound ADP probe. Potency, µM. 0.05% of 71,000 active. AID 605; active = well fitted falling curve; inconclusive = weaker or top-dose-only fall, or a rising curve; inactive = flat or poorly fitted curve;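 also: top concentration of the series not given in the record; excess ADP was the control for the full effect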
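Fluorescence polarization of a BODIPY Texas Red–ADP probe (2 uM) bound to purified YjeE (10 uM) was read after 15 min room-temperature incubation with compounds. Loss of polarization marks inhibitors; ADP serves as titrated control.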
PK Bst: alters activity of Bacillus stearothermophilus pyruvate kinase; Potency, µM; AID 361; 1.2% of 51,000 active; partly purified Bacillus stearothermophilus pyruvate kinase, luminescence ATP production; ribose 5-phosphate activator present at AC10; in the data active means potency below about 11 µM; inconclusive means mostly about 12 µM to 25 µM; inactive means weaker than that;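 the screen sought inhibitors and activators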;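 also: potency is read from the fitted curve at half-maximal effect; scaled between full activation by ribose 5 phosphate and full inhibition by luteolin; about four in five hits inhibit and the cells do not say which; series up to 57 µM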
* = called active by the depositor; i = inactive; ? = inconclusive; . = not tested or not shown. Some of the compounds tested. The share of hits here may be higher or lower than overall.

YjeE inh	PK Bst	Structure
i	>57	N#C/C(=C(/O)COC(=O)CCC1CCCCC1)c1nc2ccccc2[nH]1
i	>57	CCCOc1ccc(C2C(C(=O)c3ccc(C)o3)=C(O)C(=O)N2CCCn2ccnc2)cc1 (stereo not drawn)
i	.	CCOc1ccc(-c2cc(C(=O)O)c3ccccc3n2)c(OCC)c1
i	>57	CCOc1ccccc1N1C(=O)CC(Sc2ncccc2C(=O)O)C1=O (stereo not drawn)
i	>57	CC(=O)c1c(C)nc(C)nc1NC(=O)C(C)C
i	>57	COC(=O)c1c(NC(=O)CN2CCN(C(=O)c3ccco3)CC2)c2cc(C)ccc2n1C
i	>57	COCCSc1nnc(NC(=O)Cc2ccccc2OC)s1
i	>57	COc1ccc(S(=O)(=O)NCC(c2cccnc2)N2CCN(c3ccc(F)cc3)CC2)cc1C (stereo not drawn)
i	>57	COc1ccc(S(=O)(=O)Nc2cc(C)ccn2)cc1OC
i	>57	CCCOc1ccc(C(=O)CCN2CCCCC2)cc1

Next part.
YjeE inh	PK Bst	Structure
i	.	CCc1ccc(NC(=O)CSc2nc3c(c(=O)n(C)c(=O)n3C)n2C)cc1
i	>57	CS(=O)(=O)N1CCN(c2ccccc2NC(=O)c2ccc(-c3ccc(Cl)cc3Cl)o2)CC1
i	>57	CC1=CC2(C#N)C3(N=C(N)C2(C#N)C(c2ccccc2)N1)OCCO3 (stereo not drawn)
i	>57	CC1Cc2ccccc2N1C1=NS(=O)(=O)c2ccccc21 (stereo not drawn)
i	>57	COc1cccc(NC(=O)N[C@@H](Cc2ccccc2)C(=O)O)c1
i	.	Cc1noc(C)c1-c1cncnc1NCc1ccccc1
i	.	O=C1OC(=O)c2cc([N+](=O)[O-])ccc21
i	>57	Cc1ccc2cc(CN(Cc3ccc(F)cc3)Cc3nnnn3C3CCCC3)c(=O)[nH]c2c1
i	.	Cc1ccc(C(=O)Nc2c(C(=O)N3CCOCC3)cnn2-c2ccccc2)cc1
i	>57	CN(c1ccccc1)c1ccc(/C=c2\s/c(=C(/C#N)C(=O)C(C)(C)C)n(Cc3ccco3)c2=O)cc1

Carrying on:
YjeE inh	PK Bst	Structure
i	>57	O=C(O)c1cccc(N2CCCCS2(=O)=O)c1
i	.	CCN1CCN(C(=O)c2cc3c(-c4ccc(Cl)cc4)nn(C)c3s2)CC1
i	>57	COc1cc(NC(=O)c2csc3c2CCCC3)ncn1
i	>57	O=C(CSc1ccc(Cl)cc1)Nc1ccc(N2CCN(C(=O)c3ccco3)CC2)cc1
i	>57	COCCn1c(N)c(S(=O)(=O)c2cccs2)c2nc3ccccc3nc21
i	>57	O=C(CC(C(=O)N1CCc2ccccc21)n1ccnc1)NCc1cccnc1 (stereo not drawn)
i	>57	COc1ccc(N(Cc2cc3ccccc3[nH]c2=O)C(=O)C2CCCO2)cc1 (stereo not drawn)
i	>57	Cc1ccc(-n2c(SCC(=O)Nc3ccc4c(c3)OCO4)nnc2-c2ccoc2C)cc1
.	>26	CCCOc1ccc(N2C(=O)CC(N(CCC)C(=O)CCC(=O)O)C2=O)cc1 (stereo not drawn)
i	>57	Cc1ccc(-c2cc(-c3ccc(C)o3)nc(N)c2C#N)cc1

Some of these compounds in order of heavy-atom count, rising:
YjeE inh	PK Bst	Structure
i	.	O=C1OC(=O)c2cc([N+](=O)[O-])ccc21
i	>57	CC1=CC2(C#N)C3(N=C(N)C2(C#N)C(c2ccccc2)N1)OCCO3 (stereo not drawn)
i	>57	CCOc1ccccc1N1C(=O)CC(Sc2ncccc2C(=O)O)C1=O (stereo not drawn)
i	>57	O=C(CC(C(=O)N1CCc2ccccc21)n1ccnc1)NCc1cccnc1 (stereo not drawn)

Following part.
YjeE inh	PK Bst	Structure
i	.	CC(C)=CCc1c(O)cc(O)c2c1O[C@H](c1ccccc1)CC2=O
i	>11	N#CC1=C(N)N2C(=C(C#N)C13CCN(Cc1ccccc1)CC3)Nc1ccccc12
i	>57	CCN(CC(=O)NC1CCS(=O)(=O)C1)C(=O)C(c1ccccc1)c1ccccc1 (stereo not drawn)
i	>57	O=S1(=O)N=C2CCCN2C(c2ccc(F)cc2)N1 (stereo not drawn)
i	.	NC(=S)c1ccc[n+]([C@@H]2O[C@@H](COP(=O)([O-])OP(=O)(O)OC[C@@H]3O[C@@H](n4cnc5c(N)ncnc54)[C@@H](OP(=O)(O)O)[C@H]3O)[C@@H](O)[C@H]2O)c1
i	.	CC(C)C1Cc2[nH]c(=O)c(C(=O)O)cc2CO1 (stereo not drawn)
i	.	Cc1csc2ncc(C(=O)NCc3ccc4c(c3)OCO4)c(=O)n12
i	>57	COc1cccc(Oc2coc3c(CN4CCOCC4)c(O)ccc3c2=O)c1
i	.	Cc1cc(NC(=O)C2CC(c3ccc(F)cc3)=NO2)n(-c2ccccc2)n1 (stereo not drawn)
i	.	CCN(CC)S(=O)(=O)c1ccc(NC2c3ccccc3C(=O)N2Cc2ccc3c(c2)OCO3)cc1 (stereo not drawn)

The list continues:
YjeE inh	PK Bst	Structure
i	.	O=C1c2ccccc2C(=O)N1c1cccc(-c2nc3ccccc3o2)c1
i	.	COC(=O)CN1C(=O)C(O)(CC(=O)c2ccc(C)cc2)c2cc(Br)ccc21 (stereo not drawn)
i	>57	COCCNC(C)C(=O)Nc1ccc(Br)cc1 (stereo not drawn)
i	.	CCNc1ncc2nc(-c3ccccc3)c(=O)n(CCOC)c2n1
i	.	CCNC(=O)c1c(O)c2ccccc2[nH]c1=O
i	.	O=C(NCCN1CCOCC1)c1ccc(CS(=O)(=O)c2c(Cl)cccc2Cl)o1
i	>57	Cn1c(COc2ccccc2)nnc1SCCN1CCOCC1
i	.	CCn1c(SCC(=O)OC)nc2sc3c(c2c1=O)CCC3
i	>57	Cc1cc(=O)[nH]c(SCC(=O)NCc2ccco2)n1
i	>57	CCOc1ccc(C(CC(=O)O)NC(=O)COc2ccccc2)cc1 (stereo not drawn)

Going on with the list.
YjeE inh	PK Bst	Structure
i	>57	Cc1ccc(Cn2c(=N)n(CC(O)c3ccco3)c3ccccc32)cc1 (stereo not drawn)
i	.	Fc1cc(F)c2nc(N3CCCCC3)sc2c1
i	>57	COc1cc(OC)c(C#N)c(S(=O)Cc2ccccc2)c1 (stereo not drawn)
i	.	c1nc2sc3c(c2c2nnnn12)CCC3
i	>57	O=C(C1CCCN(Cc2cccnc2)C1)N1CCCCC1 (stereo not drawn)
i	>57	On1cnnc1-c1ccccc1
i	>57	CSCCC1NC2(C(=O)Nc3ccc(Cl)cc32)[C@@H]2C(=O)N(C3CCCC3)C(=O)[C@H]12 (stereo partly drawn)
i	.	Nc1nc(C(=O)O)c(N=Nc2ccccc2)c(=O)[nH]1
i	>57	COc1cc(C(=O)N2CCC(n3cnc4cc(F)ccc43)CC2)cc(OC)c1OC
i	i	O=c1c2[nH]c3ccc(Br)cc3c2ncn1CCCn1ccnc1

The list goes on:
YjeE inh	PK Bst	Structure
i	3.8*	CCOc1ncccc1C(=O)Nc1ccc(Cl)cc1
i	>57	CCOc1ccccc1Nc1nnc(C)c(=O)[nH]1
.	>26	c1coc(CNc2ncnc3ccccc23)c1
i	>57	CCN1C(=O)CSc2ccc(C(=O)NC3CCCCC3)cc21
i	>57	CSc1nsc(NC(=O)Cc2ccccc2)n1
i	.	CC(=O)OC1c2c(ccc3ccc(=O)oc23)OC(C)(C)C1OC(=O)CC(C)C (stereo not drawn)
i	>57	CCOc1ccc2nc(NC(=O)c3ccc(S(=O)(=O)N4CCOCC4)cc3)sc2c1
i	>57	Cc1ccc2[nH]c(=O)c(CN(Cc3ccc4c(c3)OCO4)Cc3nnnn3Cc3ccco3)cc2c1
i	>57	c1ccc(COc2ccc(Oc3nc(N4CCCCC4)nc(N4CCOCC4)n3)nn2)cc1
i	.	Cc1cccc(CNc2nc(-c3ccoc3)nc3ccccc23)c1

Remaining list, next part.
YjeE inh	PK Bst	Structure
i	.	CCCn1c(=O)c(C(=O)Nc2ccncc2)c(O)c2ccccc21
i	.	CCOC(=O)C1=C[C@@]2(CC)CCCN3CCc4c(n1c1ccccc41)[C@H]32
i	>57	CC(=O)Oc1ccc(N(C(C)=O)S(=O)(=O)c2cccs2)cc1
i	.	O=C(c1csnn1)N1CCC[C@@]2(CCN(c3cccc(-c4ccccc4)c3)C2)C1
i	>57	COc1ccc(N2CCN(C(=O)CCCOc3cc(=O)n(C)c4ccccc34)CC2)cc1
i	.	COC(C)(C)c1cc(C(C)(C)C)nc(N)n1
i	.	COc1ccccc1CC(=O)NCc1ccc2c(c1)OCO2
.	?	COc1ccc(-c2nc3c(Br)c(N)c(Br)cc3o2)cc1
i	>57	CCC1CCCCN1S(=O)(=O)c1ccc(S(=O)(=O)N(Cc2cccs2)C2CC2)cc1 (stereo not drawn)
?	>57	Cc1cc(=O)n2c3c(sc2n1)C(=O)N(Cc1ccccc1)C3=O

An excerpt of these results, with each value named.
COc1ccccc1CC(=O)NCc1ccc2c(c1)OCO2
  YjeE inh = i
  PK Bst = .

COc1ccc(-c2nc3c(Br)c(N)c(Br)cc3o2)cc1
  YjeE inh = .
  PK Bst = ?

CCC1CCCCN1S(=O)(=O)c1ccc(S(=O)(=O)N(Cc2cccs2)C2CC2)cc1 (stereo not drawn)
  YjeE inh = i
  PK Bst = >57

Cc1cc(=O)n2c3c(sc2n1)C(=O)N(Cc1ccccc1)C3=O
  YjeE inh = ?
  PK Bst = >57

Remaining list, next part:
YjeE inh	PK Bst	Structure
i	>57	O=C(CN1C(=O)C2CCc3[nH]c4ccccc4c3C2C1=O)N1CCCC1 (stereo not drawn)
i	>57	CCOc1ccc2cc(S(=O)(=O)N3CCN(C)CC3)ccc2c1
i	>57	COc1ccc(CNC(=O)c2c(O)c3ccccc3n(C)c2=O)cc1OC
i	>57	CN(Cc1nc(-c2cccnc2)no1)S(=O)(=O)c1ccc(Br)cc1
i	>57	Clc1ccc2nc(CN3CCCCC3)cn2c1
i	>57	O=C(Cn1cc(C(F)(F)F)ccc1=O)N1CCN(S(=O)(=O)c2ccc(Cl)cc2)CC1
i	.	CCCCC(CC)COC(=O)CCCCC(=O)OCC(CC)CCCC (stereo not drawn)
i	>57	COC(=O)c1ccccc1NC(=O)c1cc2sccc2n1C
i	>57	CN1/C(=C\C(=O)c2ccco2)c2ccccc2CC1(C)C
i	>57	CCN(CC)CCCNC(=O)C1c2ccccc2Oc2ccccc21

New compounds follow:
YjeE inh	PK Bst	Structure
i	.	Cc1oc(-c2cccc(Cl)c2)nc1CN1CCC(C(=O)N2CCN(c3ccccc3F)CC2)CC1
i	>57	CC1CCN(CCCNC(=O)COc2cc(=O)n(C)c3ccccc23)CC1
i	>57	CC(C)CCn1nnnc1C(c1ccc(F)cc1)N1CCC(C(N)=O)CC1 (stereo not drawn)
i	>57	O=C(NC1CC2CCC1C2)C1CCN(S(=O)(=O)c2ccc(-c3nn[nH]n3)cc2)CC1 (stereo not drawn)
i	.	CN1CCc2cc3c(cc2[C@@H]1[C@@H]1C(=O)Oc2c1ccc1c2OCO1)OCO3
i	>57	CCCOc1ccc(C(C)(O)CN2CCOCC2)cc1 (stereo not drawn)
i	>57	CC1(C)CC(CCNC(=O)c2ccco2)CC(C)(C)N1
i	>57	CC(NC(=O)CN1C(=O)COc2ccccc21)c1ccccc1 (stereo not drawn)
i	i	Nc1ccc2oc(-c3cccs3)nc2c1
i	>57	COc1cccc(-n2nnc3c(=O)n(Cc4ccc(Cl)cc4)cnc32)c1

Remaining list, next part.
YjeE inh	PK Bst	Structure
i	.	COc1cccc(C(=O)CSc2nnc(COc3cccc4cccnc34)o2)c1
i	.	CCOC(=O)N1CCN(c2c(N3CCc4ccccc4C3)c(=O)c2=O)CC1
i	>57	Cc1ccc(-n2nc3c(c2NC(=O)c2ccc(S(=O)(=O)N4CCOCC4)cc2)CSC3)c(C)c1
i	>57	Nc1nc(SCC(=O)N2CCCC2)[nH]c(=O)c1-c1ccccc1
i	>57	N#Cc1c(-c2ccccc2)cc(C2CC2)nc1N
i	.	NC(=O)c1ccc(Br)c(S(=O)(=O)N2CCCCC2)c1
i	>57	c1ccc(Cn2c(SCc3cn4cccnc4n3)nnc2-c2ccco2)cc1
i	>57	CCOC(=O)C1CCN(S(=O)(=O)C(F)(F)c2nc3ccccc3s2)CC1
i	.	CCOC(=O)Cn1cnc2c(C#N)c3n(c2c1=O)CCCCC3
i	>57	CCOC(=O)C1CCN(C(=O)CN(Cc2ccccc2)S(C)(=O)=O)CC1

In another format: 3 of the compounds above
Value order – YjeE inh, PK Bst
c1ccc(COc2ccc(Oc3nc(N4CCCCC4)nc(N4CCOCC4)n3)nn2)cc1
→ i, >57
CCNC(=O)c1c(O)c2ccccc2[nH]c1=O
→ i, .
CC(=O)Oc1ccc(N(C(C)=O)S(=O)(=O)c2cccs2)cc1
→ i, >57

Following part.
YjeE inh	PK Bst	Structure
i	.	O=C(O)c1ccc2c3c(cccc13)C(=O)N(c1ccccc1O)C2=O
i	>57	COc1c(C)cc(Br)cc1C(=O)O
i	>57	Cc1cc(NC(=O)CN2CCCCCCC2)no1
i	.	CC(C)C[C@H](NC(=O)[C@@H](NC(=O)N[C@@H](Cc1ccccc1)C(=O)O)[C@H]1CCN=C(N)N1)C(=O)N[C@H](C=O)Cc1ccccc1
i	>57	CN(Cc1ccccc1)C1CC(=O)N(c2ccc(C(=O)O)cc2)C1=O (stereo not drawn)
.	>11	CCCCOc1ccccc1C(=O)NCCCCCC(=O)O
i	>57	O=C(CN(C(=O)CCC(=O)Nc1nccs1)c1cccc(F)c1)NCC1CCCO1 (stereo not drawn)
i	.	COc1ccc2c(c1)N(CC[C@H]1CCCCN1C)c1ccccc1S2
i	>57	Fc1ccc(Cn2nnnc2C(c2cccs2)N2CCCCCC2)cc1 (stereo not drawn)
i	.	O=C(O)C1C2C=CC(C2)C1C(=O)NCc1ccc2c(c1)OCO2 (stereo not drawn)

Screening data (PubChem)
